Assay outcomes deposited in PubChem BioAssay by several laboratories.
LANA-H2A inh – blocks KSHV LANA binding to histone H2A/H2B | cell-free LANA-H2A/H2B peptide, fluorescence polarization | inhibition, % (concentration not given with the values) | 0.6% of 320,000 active | AID 2629; in the data active means inhibition mostly above about 10%, no sharp cut-off; inactive means mostly below about 6.7%;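 further: stock transfer was 7.5 nL into about 10 µL; 0% = median of vehicle wells and 100% = median of positive control wells; one replicate is shown; the record names a cut of 25% in any replicate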
B2AR ag – human beta-2 adrenergic receptor agonism by FAP. 0.43% of 340,000 active. response, % (test concentration not listed). Am2.2-beta2AR cells, FAP receptor internalization, flow cytometry; reference of the scale not given here. P07550. AID 504454;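 active means response above a set limit, near 3 SD of response in nonfluorescent compounds, cut at about 42% in these data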;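 further: stock transfer was 100 nL into about 11 µL; a reference agonist was the positive control; negative values mostly stem from fluorescent compounds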
Target sequence (P07550 whole entry, looked up): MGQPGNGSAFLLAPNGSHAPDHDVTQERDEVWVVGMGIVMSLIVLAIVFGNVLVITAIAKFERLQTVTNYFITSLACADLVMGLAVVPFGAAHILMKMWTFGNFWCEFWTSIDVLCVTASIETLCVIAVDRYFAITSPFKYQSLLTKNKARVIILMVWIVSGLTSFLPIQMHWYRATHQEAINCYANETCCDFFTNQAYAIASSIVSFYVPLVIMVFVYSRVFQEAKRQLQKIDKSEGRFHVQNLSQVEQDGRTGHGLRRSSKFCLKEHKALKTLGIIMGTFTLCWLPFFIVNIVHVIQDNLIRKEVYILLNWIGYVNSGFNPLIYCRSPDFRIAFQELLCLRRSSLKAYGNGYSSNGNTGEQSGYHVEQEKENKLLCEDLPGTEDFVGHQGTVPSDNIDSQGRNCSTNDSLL
Ecoli rRNA inh – inhibitors of bacterial rRNA selective over humanized ribosomes; E. coli WT GFP vs humanized-ribosome RFP mutants, fluorescence, 24 h; active compounds read low; DMSO median 0, no signal -100; GFP signal change (wild-type ribosome), % (concentration not given with the values); 1.6% of 350,000 active; AID 720706;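 active means significant combined selectivity score with lowered wild-type GFP, culture density cut under 30%, mutant RFP and density less affected; inactive means any of these conditions unmet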; further: one replicate is shown; some compounds called inactive have numbers as strong as hits
ALR H2O2 inh – human ALR oxidase inhibition via reduced H2O2. P55789. purified ALR, DTT oxidation, H2O2 HRP-luminol luminescence. inhibition, % (concentration not given with the values). 3.8% of 290,000 active. AID 485317;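 active means mean and each replicate at 75% or more; inconclusive means only one of the two met; inactive means neither met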;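 further: stock transfer was 7.5 nL into about 7.5 µL; 0% = neutral wells and 100% = wells with inactivated enzyme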
Target sequence (P55789 whole entry, looked up): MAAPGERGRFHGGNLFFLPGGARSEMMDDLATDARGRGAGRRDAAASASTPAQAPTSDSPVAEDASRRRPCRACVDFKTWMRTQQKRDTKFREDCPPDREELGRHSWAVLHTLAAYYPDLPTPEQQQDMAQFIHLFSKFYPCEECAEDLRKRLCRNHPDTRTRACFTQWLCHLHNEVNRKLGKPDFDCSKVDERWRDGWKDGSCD
Beta cell apopt – beta cell apoptosis inhibition; INS-1E cytokine-induced death, ATP luminescence, 48 h; percent of positive-control rescue, neutral wells zero; protection from apoptosis, % (test concentration not listed); 0.8% of 300,000 active; AID 435005;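 active means all replicates at 75% or more, or half of them and the mean; inconclusive means half reach 75% but not the mean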;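 further: 0% = cytokine-treated negative control wells and 100% = positive control rescue; higher means more ATP so stronger rescue from cytokine killing; wells of about 40 µL received 100 nL stock; the first replicate is given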
T cruzi repl – T. cruzi replication inhibition. inhibition, % (no concentration beside the values). 1.4% of 300,000 active. T. cruzi beta-gal in NIH3T3, luminescence, 90 h;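 active means mean inhibition across valid replicates above about 55%, limit read from the data; inconclusive means mean below that limit but half or more replicates reach it; inactive means mean below it, under half of replicates reach it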;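 further: signal also drops with host cell toxicity which is not excluded here; 0% = plate median of DMSO wells and 100% = zero luminescence signal; higher percent means less beta-gal luminescence so fewer parasites; stock transfer was 50 nL into about 50 µL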
A1 inh – inhibitors of the anti-apoptotic protein A1, read as caspase activation | MEF A1-2A-BIM cells, Caspase-Glo 3/7 luminescence, 3 h; percent of clofoctol response, vehicle zero | caspase activation, % (no concentration beside the values) | 0.066% of 330,000 active | AID 2462;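 active means over half of replicate activation scores above 10%, or exactly half above 10 with the replicate mean above 10; inconclusive means replicate mean below 10 yet half the replicates above 10; inactive means over half of replicates below 10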;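 further: wells of about 30 µL received 50 nL stock; many hits fall short of the cut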
Calb FLC – affects C. albicans growth with fluconazole | 0.57% of 300,000 active | growth inhibition, % (test concentration not listed) | C. albicans CaCi-2 (fluconazole-resistant clinical isolate) + fluconazole, Alamar Blue growth, 48 h;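 active means most replicates above 75%; inconclusive means exactly half above 75%; inactive means most below 75%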;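 further: all wells also contain fluconazole at 8 µg/ml as a sub-toxic cotreatment; 0% = median of DMSO wells and 100% = median of geldanamycin control wells; wells of about 8 µL received 7.5 nL stock; the first replicate is given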
Ecoli rRNA inh OD600 – second read-out of Ecoli rRNA inh, no call of its own (marks repeat the call); OD600 change, %; measured here: OD600 growth;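 optical density of the mix in the first replicate; 0 = DMSO median and -100 = no signal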
Ecoli rRNA inh RFP – further read-out of Ecoli rRNA inh, marked with its call; RFP signal change, %; measured here: RFP humanized mutant strains;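 first replicate; 0 = DMSO median and -100 = no signal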
* hit, by the source's call; ? = inconclusive; · = no result given. Only part of the results is shown (hit frequency here may not be typical).

SMILES | LANA-H2A inh | B2AR ag | Ecoli rRNA inh | Ecoli rRNA inh OD600 | Ecoli rRNA inh RFP | ALR H2O2 inh | Beta cell apopt | T cruzi repl | A1 inh | Calb FLC
OCC(O)/C=N/Nc1nc(N2CCCCC2)nc(N2CCCCC2)n1 (stereo unspecified) | 4.4 | 0 | -1 | 4 | 3.0 | -19 | -5 | 8 | -0.5 | 12
O=C(NCc1ccccc1Cl)C1CCN(S(=O)(=O)c2ccc(-n3cnnn3)cc2)CC1 | -5.2 | -9 | 1 | 3 | -2.1 | · | -4 | 5 | -0.4 | -3
CCCCN=C1CC(C)(C)CC(=O)/C1=C(/O)CCC | 2.1 | -8 | 6 | 3 | 0.6 | -11 | 0 | 8 | 0.8 | 8
O=C(CCc1ccc(S(=O)(=O)N2CCOCC2)cc1)N1CCc2ccccc2C1 | -6.0 | 2 | -5 | -14 | -1.1 | -14 | -1 | -16 | -1.5 | -4
CCOC(=O)c1cc(NC(=O)CSCCO)ccc1Cl | 2.6 | 2 | · | · | · | 99* | 2 | 6 | -0.6 | -8
COc1cccc(N=c2oc3ccc(OC)cc3cc2-c2nc3ccccc3[nH]2)c1 | 0.2 | 3 | · | · | · | -8 | 32 | 15 | 0.3 | 0
CCOc1ccc(C(C)=O)cc1COC(=O)C(C)N=C1NS(=O)(=O)c2ccccc21 (stereo unspecified) | 1.6 | 4 | -10 | -11 | 3.5 | 1 | · | -9 | 0.5 | -5
CC(=O)Oc1ccc(N2C(=O)C3C4C=CC(CO)(O4)C3C2=O)cc1 (stereo unspecified) | 2.2 | -4 | · | · | · | 49 | -6 | -16 | -1.8 | -5
COc1cccc(/C=N/Nc2cc(Cl)nc(C)n2)c1O | 2.2 | 4 | -21 | -21 | -1.7 | -1 | 11 | -3 | -2.9 | -14
COCCCn1c(=N)c(C(=O)NC2CCCCC2)cc2c(=O)n3ccccc3nc21 | 3.7 | -22 | · | · | · | 11 | 7 | · | 2.2 | 2
O=C(CN1C(=O)C2CC=CCC2C1=O)Nc1nc(-c2ccc(F)cc2)cs1 (stereo unspecified) | 11 | 24 | -16 | -34 | 6.2 | 1 | -1 | · | -0.8 | ·
CC(C)COc1ccc(C(=O)Nc2sc3c(c2C(=O)O)CC(C)(C)OC3)cc1 | 3.5 | 4 | -13 | -8 | -2.5 | -3 | -6 | -50 | 0.1 | 9
O=C(C1CC1)N(CCN(C(=O)C1CC1)c1ccccc1)c1ccccc1 | 9.0 | 1 | · | · | · | -4 | 1 | 3 | 0.6 | 12
CCNC(=O)NC(=O)COC(=O)CNC(=O)COc1ccccc1 | 0.7 | -3 | · | · | · | -15 | -3 | 6 | 0.1 | 7
N=C1C(c2ccccc2)=C(O)CN1c1cccc(S(=O)(=O)NCc2ccco2)c1 | 0.2 | -8 | 3 | -4 | -1.8 | 1 | -11 | 4 | 0.1 | -3
Cc1cccnc1NC(=O)CCCNC(=O)c1ccc(Cl)cc1 | -4.7 | 3 | 8 | 9 | 2.9 | -1 | 0 | -13 | 2.4 | -5
CC(=O)Nc1ccc(-c2nnc(SCC(=O)c3ccc4c(c3)Cc3ccccc3-4)n2C)cc1 | -1.8 | 2 | -18 | -11 | 15 | 18 | 2 | 5 | -0.4 | 2
CCN(C(=O)COC(=O)c1cc(=O)[nH]c2ccccc12)C1CCS(=O)(=O)C1 (stereo unspecified) | -0.4 | -7 | 2 | 2 | 3.3 | -9 | -2 | -9 | -0.3 | -7
Cc1snc2sc(C(=O)c3ccc(F)cc3)c(N)c12 | -4.9 | -1 | 3 | 8 | -3.8 | -4 | -2 | 4 | -0.6 | -10
COc1ccccc1NC(=O)c1cc(C(=O)O)ccc1C(=O)O | 0.2 | 0 | · | · | · | -11 | -12 | -3 | 0.7 | 5

3 records drawn at random from the list so far, as already listed:
SMILES | LANA-H2A inh | B2AR ag | Ecoli rRNA inh | Ecoli rRNA inh OD600 | Ecoli rRNA inh RFP | ALR H2O2 inh | Beta cell apopt | T cruzi repl | A1 inh | Calb FLC
CCOC(=O)c1cc(NC(=O)CSCCO)ccc1Cl | 2.6 | 2 | · | · | · | 99* | 2 | 6 | -0.6 | -8
CCN(C(=O)COC(=O)c1cc(=O)[nH]c2ccccc12)C1CCS(=O)(=O)C1 (stereo unspecified) | -0.4 | -7 | 2 | 2 | 3.3 | -9 | -2 | -9 | -0.3 | -7
CC(C)COc1ccc(C(=O)Nc2sc3c(c2C(=O)O)CC(C)(C)OC3)cc1 | 3.5 | 4 | -13 | -8 | -2.5 | -3 | -6 | -50 | 0.1 | 9

The main list resumes, repeating the two entries before the break.
SMILES | LANA-H2A inh | B2AR ag | Ecoli rRNA inh | Ecoli rRNA inh OD600 | Ecoli rRNA inh RFP | ALR H2O2 inh | Beta cell apopt | T cruzi repl | A1 inh | Calb FLC
Cc1snc2sc(C(=O)c3ccc(F)cc3)c(N)c12 | -4.9 | -1 | 3 | 8 | -3.8 | -4 | -2 | 4 | -0.6 | -10
COc1ccccc1NC(=O)c1cc(C(=O)O)ccc1C(=O)O | 0.2 | 0 | · | · | · | -11 | -12 | -3 | 0.7 | 5
O=[N+]([O-])c1ccc(Cl)cc1CNc1ccc(F)c(F)c1 | -0.7 | 6 | · | · | · | 45 | 5 | -8 | 0.7 | -23
Cc1csc(SCC(=O)Nc2ncc(Cl)c(C)c2Cl)n1 | -2.3 | -18 | · | · | · | -4 | -5 | 0 | -1.3 | 4
COc1ccc(Cl)cc1NS(=O)(=O)c1ccc(S(=O)(=O)N2CCCC2)cc1 | -2.6 | 1 | · | · | · | -1 | 3 | -2 | -0.3 | -4
CC1=CC(C)(C)N2C(=O)C(=O)c3cc(OC(=O)c4ccco4)cc1c32 | -3.6 | 15 | -23* | -16* | 0.9* | 20 | 12 | -17 | 1.3 | -32
Cc1ccc(C)c(-n2c(C)cc(/C=N/NC(=O)c3c(C)nc4cc(C)ccn34)c2C)c1 | -3.5 | 24 | · | · | · | 10 | 3 | 27 | 0.1 | 4
Cc1cccc(-c2nn(-c3ccccc3)cc2C(=O)N(C)CC(=O)Nc2ccc(N3CCOCC3)cc2)c1 | -6.6 | · | 2 | 11 | 1.0 | -3 | 5 | 0 | 0.4 | -2
CSc1ccccc1NC(=O)c1ccccc1C | 0.3 | 3 | 5 | 14 | 1.2 | 4 | -3 | -20 | 0.8 | ?
OCCOc1ccc(CN2CCN(CCCc3ccccc3)C(CCO)C2)cc1 (stereo unspecified) | 1.4 | -8 | 6 | 9 | -0.4 | 16 | · | 5 | 0.4 | -12
CCCCn1c(N)c(N(CC)C(=O)CSc2nnnn2-c2cc(C)ccc2C)c(=O)[nH]c1=O | 1.2 | -6 | -2 | 2 | 11 | -5 | -1 | -3 | -0.2 | -12
Nc1ccc(C(=O)N2CCN(S(=O)(=O)c3ccc(Br)cc3)CC2)cc1[N+](=O)[O-] | 3.4 | -1 | -16 | -22 | -3.9 | -15 | 4 | 10 | 1.0 | -12
Clc1ccc(CNCCCSc2ncccn2)cc1Cl | -0.9 | -9 | -4 | -1 | 4.8 | -11 | 0 | 56* | 0.5 | -22
Cc1ccc2oc(=O)n(Cc3ccccc3OC(C)C)c2c1 | -1.0 | -5 | · | · | · | · | -11 | -1 | 0.2 | 0
COc1ccc(Cl)cc1NC(=O)COc1ccc(S(=O)(=O)N2CCOCC2)cc1C | -3.0 | 0 | 2 | 8 | -2.5 | -9 | 4 | -5 | -0.2 | -4
Cn1c(=O)c2c(nc(CN3CCN(Cc4ccccc4)CC3)n2Cc2ccc(Cl)cc2)n(C)c1=O | -2.8 | -1 | -17 | -61 | 2.3 | -7 | 12 | 20 | 0.4 | 2
CCN1CCN(CCCNC(=O)c2ccc(CS(=O)c3ccc(Br)cc3)o2)CC1 (stereo unspecified) | -1.0 | -2 | 8 | 11 | 1.1 | -6 | -10 | 8 | -0.5 | 13
CC(C)CNS(=O)(=O)c1ccc(OCC(=O)Nc2ccc3c(c2)OCO3)c(Cl)c1 | -0.6 | 1 | · | · | · | -3 | 4 | -13 | 0.4 | -1
COc1ccc(/C=C/C(=O)NCc2ccccn2)cc1OC | 5.8 | -2 | 4 | 5 | -5.7 | -2 | -2 | -16 | 0.7 | -4
O=C(c1ccc(N2CCCCC2)c([N+](=O)[O-])c1)N1CCN(S(=O)(=O)c2ccccc2)CC1 | -1.6 | 4 | -16 | -18 | -1.0 | 0 | 8 | 2 | 0.8 | -2
Cc1cc(C)cc(NS(=O)(=O)c2cccs2)c1 | -4.3 | 5 | 0 | -9 | 2.2 | · | -8 | 6 | 0.3 | 3
COc1ccc(NC(=O)CC2Sc3ncnn3C2=O)cc1 (stereo unspecified) | -2.6 | 3 | 6 | 12 | -0.5 | 22 | -5 | -12 | 0.7 | -10
Cc1nc2ccc(NC(=O)c3c(-c4ccccc4)noc3C)cc2s1 | 4.9 | -11 | · | · | · | -11 | 0 | 13 | 0.3 | -16
CCC1=NN(C(=O)c2ccc(Br)cc2)C(O)(c2ccccc2)C1 (stereo unspecified) | -6.8 | 10 | -49 | -71 | -25 | 27 | 4 | -19 | 5.3 | ?
CC(=O)C1=C(O)C(=O)N(CCc2c[nH]c3ccccc23)C1c1ccc(C)cc1 (stereo unspecified) | 2.3 | 0 | -12 | -23 | 1.3 | 53 | 0 | 12 | 0.8 | 36
CCN(CC)C(=O)Cn1cc(C(=O)C(=O)NCCc2ccc(S(N)(=O)=O)cc2)c2ccccc21 | 5.5 | 2 | 3 | 8 | 3.8 | -2 | -5 | 2 | 2.1 | -1
CC1=C(C(=O)OCCNC(=O)c2cccnc2)C(c2cccc([N+](=O)[O-])c2)C(C(=O)OCCN(C)C)=C(C)N1 (stereo unspecified) | -2.7 | -13 | · | · | · | 0 | 0 | 12 | -0.2 | -1
COc1ccc(C2(CNC(=O)c3cccc([N+](=O)[O-])c3)CCCCC2)cc1OC | 1.7 | -12 | -10 | -12 | -3.1 | -2 | 12 | 12 | 2.9 | 7
COc1ccc2c(C(F)(F)F)cc(=O)oc2c1C | 5.3 | -6 | · | · | · | -12 | -8 | -17 | -0.1 | -3
CC(C)Oc1cccc(C(=O)NC(=S)Nc2ccccc2)c1 | -4.7 | -10 | · | · | · | -9 | -8 | -13 | -0.4 | -15
COC(=O)CSc1nc(C2CC2)nc2ccccc12 | -1.5 | -8 | -6 | 0 | 1.6 | -11 | -1 | 2 | -0.5 | 5
O=C(c1ccc2c(c1)C(=O)N(Cc1ccco1)C2O)N1CCOCC1 (stereo unspecified) | 3.2 | 6 | 3 | -4 | -5.4 | 87* | -3 | -18 | 0.0 | 2
COc1cccc(CNC(=O)CCCC(=O)Nc2cccc([N+](=O)[O-])c2)c1 | -3.5 | 7 | -5 | -4 | 1.6 | -3 | -2 | -16 | -0.3 | -12
